Rango-impB inh = qHTS Assay for Inhibitors of Rango (Ran-regulated importin-beta cargo) - Importin beta complex formation; Importin subunit beta-1 (Homo sapiens), Q14974; Rango CFP/YFP FRET sensor + importin beta, 45 min; Potency, µM (series often up to 92.2 µM), for the others: at the highest dose inhibition of complex formation; actives 0.031% (n = 340,000); AID 540263, 2011; active = rising FRET ratio curve, often small or poorly fitted; inconclusive = mostly compound fluorescence or quenching in the first reads; inactive = flat curves in all reads;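 note: potency is the fitted concentration of half-maximal effect; 0% = DMSO wells and 100% = buffer wells lacking importin beta; nearly all actives have a fitted effect of over 15% in size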
Target sequence (Q14974 whole entry, looked up): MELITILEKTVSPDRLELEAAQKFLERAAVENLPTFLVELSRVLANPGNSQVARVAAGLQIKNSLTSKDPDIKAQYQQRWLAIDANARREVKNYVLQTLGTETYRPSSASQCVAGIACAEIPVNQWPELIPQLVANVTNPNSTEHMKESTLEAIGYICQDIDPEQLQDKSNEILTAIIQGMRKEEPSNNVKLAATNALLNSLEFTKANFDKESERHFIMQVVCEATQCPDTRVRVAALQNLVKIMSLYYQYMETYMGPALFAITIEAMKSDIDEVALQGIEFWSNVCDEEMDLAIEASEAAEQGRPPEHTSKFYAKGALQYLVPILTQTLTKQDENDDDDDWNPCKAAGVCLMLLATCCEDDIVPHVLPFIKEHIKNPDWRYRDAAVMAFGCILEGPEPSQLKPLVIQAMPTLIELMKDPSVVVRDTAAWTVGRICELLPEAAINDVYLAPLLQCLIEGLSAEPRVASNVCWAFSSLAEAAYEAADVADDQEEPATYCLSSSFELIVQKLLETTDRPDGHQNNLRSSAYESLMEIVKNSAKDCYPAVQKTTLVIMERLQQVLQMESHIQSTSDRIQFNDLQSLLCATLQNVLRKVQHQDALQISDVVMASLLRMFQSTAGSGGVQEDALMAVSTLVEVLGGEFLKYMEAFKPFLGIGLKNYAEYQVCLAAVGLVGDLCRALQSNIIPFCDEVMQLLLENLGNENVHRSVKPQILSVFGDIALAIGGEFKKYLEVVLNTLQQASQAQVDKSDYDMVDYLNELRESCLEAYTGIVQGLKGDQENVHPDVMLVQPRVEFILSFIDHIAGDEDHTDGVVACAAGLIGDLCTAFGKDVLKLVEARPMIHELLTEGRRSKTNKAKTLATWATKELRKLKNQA
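FRET biosensor Rango (snurportin 1 IBB between N-terminal EYFP and C-terminal Cerulean), 50 nM in PBS/1 mM DTT/0.02% Tween-20/0.1% BSA, preincubated 5 min RT with compound; 0.125 microM importin beta added, 45 min RT, CFP/YFP FRET ratio read.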
miR-21 FLuc = qHTS Assay for Modulators of miRNAs and/orActivators of miR-21; HeLa miR-21 FLuc reporter, luciferase, 48 h; Potency, µM (doses to about 38.3 µM), for the others: at the top dose reporter change, positive = more light; 340,000 tested, under 10 active; AID 2288, 2010; active = well fitted rising curve with a large enough effect; inconclusive = small, poorly fitted or top-dose-only effect; inactive = no such curve, though single readings can be large or run the other way;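 note: % of control where 0% means no effect; miR-21 action dims this reporter so a rising signal means less miR-21 action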
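HeLa cells endogenously expressing miR-21, stably carrying CMV-driven firefly luciferase with a downstream miR-21 binding site, 2000 cells/well. Titrations up to approximately 40 uM, 48 hours; luciferase luminescence read.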
Rango dissoc inh = qHTS Assay for Inhibitors of RanGTP induced Rango (Ran-regulated importin-beta cargo) - Importin beta complex dissociation; Biochemical FRET Rango-importin beta, RanGTP-induced dissociation; Potency, µM (series often up to 46.1 µM), for the others: top-dose activity change, negative = inhibition; Snurportin-1 (Homo sapiens) + GTP-binding nuclear protein Ran (Homo sapiens) + Importin …; AID 540253, 2011; actives 0.071% (n = 340,000); active means falling FRET ratio curve, often poorly fitted, with flat reads before Ran was added; inconclusive means other falling curves, or compound fluorescence or quenching; inactive means flat or rising ratio curve;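 note: potency is the fitted concentration of half-maximal effect; % of control where 0% means no effect; nearly all actives have a fitted effect of over 45% in size; -100% = wells without RanGTP and RCC1; the record marks most hits as doubtful in a second field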
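Rango (0.1 uM)–importin beta (0.25 uM) complex; RanGTP-RCC1 trigger; 45 min RT; CFP/YFP FRET read.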
GLA inh pH 4.5 = qHTS Assay for Inhibitors of Human alpha-Galactosidase at pH 4.5. Alpha-galactosidase A (Homo sapiens), P06280. purified enzyme, 4-MU-alpha-Gal fluorescence, pH 4.5. activity change, negative = inhibition, % at 105 µM. 230,000 tested, under 10 active; inconclusive = small, poorly fitted or top-dose-only inhibition, or a rising curve; inactive = flat fitted curve, though single readings scatter; no compound was filed as active;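 note: 0% = full activity with enzyme and -100% = basal without enzyme; dose as in the result columns while the protocol names 77 µM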
* = called active by the depositor; ? = inconclusive; · = no result given; & = joins results of further samples. An excerpt; the hit share may differ from the screen's.

GLA inh pH 4.5,Rango dissoc inh,miR-21 FLuc,Rango-impB inh,structure
-28.0,-0.2%,25.1%,?,CCOC(=O)C1=C(CSc2nc3ccccc3s2)NC(=O)NC1c1ccc(OC)cc1 (centres undefined)
·,11.3%,1.7%,3.5%,Cc1cc(OC(C)C(=O)N2CCN(c3ccccc3)CC2)c2c(C)c(C)c(=O)oc2c1 (centres undefined)
0.6,-10.5%,-13.5%,6.3%,CCC1CCCCN1C(=O)CSc1nnc(-c2ccc(OC)cc2)o1 (centres undefined)
-4.6,1.9%,-0.6%,-3.9%,O=C(OC1CCN(c2ncc(C(F)(F)F)cc2Cl)CC1)c1cccc(C(F)(F)F)c1
-9.4,-11.7%,-1.4%,1.8%,Cc1ccc(C)c(S(=O)(=O)N2CCN(CC(=O)Nc3ccc4c(c3)CCC4)CC2)c1
·,-4.6%,9.3%,-0.4%,Cc1ccc(SCCN2CCN(Cc3ccccc3)CC2)cc1
·,0.0%,-1.1%,0.9%,CCn1cc(C(=O)NCCC(=O)NC(C)C)c(=O)c2cc3c(cc21)OCO3
·,-20.7%,13.7%,?,COc1ccccc1CN1CCC(n2nccc2NC(=O)CCCc2ccccc2)CC1
4.1,-4.0%,-0.6%,-3.5%,Cc1ccc(C(=O)N/C(=C/c2ccco2)C(=O)NC2CCS(=O)(=O)C2)cc1 (centres undefined)
-6.0,10.4%,3.5%,-0.2%,Cc1ccccc1NC(=O)CCC(=O)N/N=C/c1c[nH]c2ccccc12
8.1,0.6%,-0.8%,5.2%,CC(Oc1ccc(Cl)cc1Cl)C(=O)NN=C1CCN(C)CC1 (centres undefined)
-5.3,-0.1%,-3.0%,-2.3%,CCCCCCC(=O)Nc1ccc(C(=O)N2CCCC2)cc1
-9.8,6.1%,-13.3%,3.7%,COc1cccc(/C=C(/C(=O)OCC(=O)NC2CCCCCCC2)c2ccccc2)c1
5.8,1.4%,0.5%,-0.4%,C=CCOc1ccc(-c2nc3c(c(=O)[nH]c(=O)n3CCCC)n2C)cc1OC
-10.3,6.5%,-0.2%,3.6%,Cc1ccc(S(=O)(=O)N(C)CC(=O)N2CCN(c3ccccn3)CC2)cc1
-5.5,0.1%,0.0%,-1.5%,Cc1cc(Br)cc(C)c1NC(=S)NC(=O)CC(C)C
·,-0.3%,-7.9%,-3.0%,CC(C)COc1ccc(C(=O)OCCN2CCCCC2)cc1
·,-4.3%,-71.3%,0.7%,Cc1ccc(C(=O)NCCc2c[nH]c3ccccc23)s1
4.4,1.4%,-6.2%,1.4%,NNC(=O)CCc1c[nH]c2ccccc12
-2.9,2.6%,4.4%,2.9%,CCN1C(=O)CC(N2CCN(c3ccc(C(=O)c4ccncc4)cc3)CC2)C1=O (centres undefined)
-2.9,17.0%,-9.7%,3.9%,COc1ccc(CN(C)CCc2ccccn2)c(OC)c1OC
7.0,2.6%,0.2%,0.8%,Cc1nc2ccc(C(=O)O)cc2[nH]1
6.3,0.6%,-9.8%,-1.0%,O=C(Nc1nnc(-c2ccccc2)o1)C1CCCCC1
1.4,-7.2%,-20.0%,0.1%,CC(C)NC(=O)c1ccc(OC2CSC2)cc1
1.3,-23.4%,-1.2%,-2.9%,O=C(O)C1C2C=CC3(CN(c4cccc(C(F)(F)F)c4)C(=O)C13)O2 (centres undefined)
-0.5,0.2%,-2.4%,2.4%,C=CCN1C(=O)/C(=C/c2ccccc2)S/C1=N/c1nccs1
4.9,26.0%,-9.0%,3.9%,O=C(c1ccc(C(=O)N2CCCCCC2)cc1)N1CCCCCC1
·,-0.3%,-2.1%,-2.1%,COc1ccccc1CNC(=O)CN(C)S(=O)(=O)c1ccc(Br)s1
8.2,-12.6%,-4.2%,?,COc1ccc2oc(=O)cc(C)c2c1
·,-5.8%,0.2%,?,COc1ccccc1-n1c(SCC(=O)N2CCOCC2)nc(O)cc1=O
-4.0,0.2%,1.8%,4.8%,CCC1Oc2ccc(C)cc2N(CC(=O)NCC2COc3ccccc3O2)C1=O (centres undefined)
-6.0,17.1%,0.2%,0.6%,N#Cc1nc(N2CCOCC2)nc(N2CCOCC2)n1
-5.3,-14.6%,-14.1%,-3.1%,O=c1oc2ccc(Cl)cc2cc1-c1ccccc1
·,0.0%,-1.5%,0.6%,COCCn1c(SCC(=O)NC2CCCC2)nnc1-c1ccco1
·,-22.7%,-12.9%,0.1%,CN(C(=O)Cn1nnc2ccccc2c1=O)C1CCCCC1
-0.9,-11.2%,-0.4%,5.1%,COc1cccc(N/N=C(\C#N)S(=O)(=O)C(C)(C)C)c1
·,-20.1%,·,4.5%,COc1ccccc1N1CC(C(=O)Nc2ccc(N3CCOCC3)cc2)CC1=O (centres undefined)
·,-7.0%,·,1.2%,CN1OC[C@@H]2CN(C(=O)CCc3ccccc3)[C@H](c3cccc(Oc4ccccc4)c3)C[C@@H]21
-2.0,7.1%,2.0%,-5.0%,Cc1cccc(C)c1NC(=S)N1CCCN(Cc2ccc(F)cc2)C1
·,19.5%,·,-1.0%,CCc1ccccc1OCC(=O)Nc1cccc(S(=O)(=O)NC2=NCCC2)c1

16 entries from above, comma-delimited.
SMILES,GLA inh pH 4.5,Rango dissoc inh,miR-21 FLuc,Rango-impB inh
COc1ccc(CN(C)CCc2ccccn2)c(OC)c1OC,-2.9,17.0%,-9.7%,3.9%
Cc1nc2ccc(C(=O)O)cc2[nH]1,7.0,2.6%,0.2%,0.8%
O=C(Nc1nnc(-c2ccccc2)o1)C1CCCCC1,6.3,0.6%,-9.8%,-1.0%
CC(C)NC(=O)c1ccc(OC2CSC2)cc1,1.4,-7.2%,-20.0%,0.1%
O=C(O)C1C2C=CC3(CN(c4cccc(C(F)(F)F)c4)C(=O)C13)O2 (centres undefined),1.3,-23.4%,-1.2%,-2.9%
C=CCN1C(=O)/C(=C/c2ccccc2)S/C1=N/c1nccs1,-0.5,0.2%,-2.4%,2.4%
O=C(c1ccc(C(=O)N2CCCCCC2)cc1)N1CCCCCC1,4.9,26.0%,-9.0%,3.9%
COc1ccccc1CNC(=O)CN(C)S(=O)(=O)c1ccc(Br)s1,·,-0.3%,-2.1%,-2.1%
COc1ccc2oc(=O)cc(C)c2c1,8.2,-12.6%,-4.2%,?
COc1ccccc1-n1c(SCC(=O)N2CCOCC2)nc(O)cc1=O,·,-5.8%,0.2%,?
CCC1Oc2ccc(C)cc2N(CC(=O)NCC2COc3ccccc3O2)C1=O (centres undefined),-4.0,0.2%,1.8%,4.8%
N#Cc1nc(N2CCOCC2)nc(N2CCOCC2)n1,-6.0,17.1%,0.2%,0.6%
O=c1oc2ccc(Cl)cc2cc1-c1ccccc1,-5.3,-14.6%,-14.1%,-3.1%
COCCn1c(SCC(=O)NC2CCCC2)nnc1-c1ccco1,·,0.0%,-1.5%,0.6%
CN(C(=O)Cn1nnc2ccccc2c1=O)C1CCCCC1,·,-22.7%,-12.9%,0.1%
COc1cccc(N/N=C(\C#N)S(=O)(=O)C(C)(C)C)c1,-0.9,-11.2%,-0.4%,5.1%

The list goes on:
GLA inh pH 4.5,Rango dissoc inh,miR-21 FLuc,Rango-impB inh,structure
-6.6,22.9%,0.3%,?,COc1ccc(/C=N/NC(=O)c2nn(-c3ccccc3)c(=O)c3c(N)scc23)cc1
-10.4,4.1%,2.1%,?,COc1ccc(CNC(=O)CCCc2ccccc2)cc1
·,0.7%,-47.8%,0.0%,COc1ccc(C(=O)NCCc2ccccc2)cc1OC
-21.6,1.0%,-1.5%,-0.2%,CCOc1ccc(S(=O)(=O)NCCCN2CCCC2=O)cc1
·,1.9%,·,-0.5%,COc1ccc(-c2ccc3c(c2)C2CC3CCN2C(=O)C2CCCCC2)cc1 (centres undefined)
4.2&8.7,-10.2%&10.9%,-8.1%&-4.4%,-7.5%&0.0%,O=C(NC1CCC(C(=O)O)CC1)OCc1ccccc1 (centres undefined)
10.1,1.0%,-6.0%,0.8%,CCOC(=O)c1c(C)n(C)c2cc(-c3cccc(C(F)(F)F)c3)c(O)cc12
0.6,12.3%,-4.6%,-0.4%,CCCCn1nc2cc(C(=O)NCc3ccco3)ccc2c1OCC
-0.4,0.5%,-0.9%,-1.3%,CS(=O)(=O)N1N=C(c2cccs2)CC1c1ccccc1F (centres undefined)
·,1.0%,-6.6%,-0.1%,CCn1ccc(C(=O)NCCCN2CCCC2=O)n1
·,?,-27.7%,2.6%,O=C(COc1ccc(F)cc1F)Nc1cccnc1
-8.9,2.2%,-3.5%,-2.4%,CC1(C)Cc2c(sc3c2c(=N)n(Cc2ccco2)c(=O)n3CC(=O)Nc2cccc(Cl)c2)CO1
-4.7,9.6%,0.8%,-1.7%,CC(=O)N(Cc1ccc(F)cc1)Cc1nc2ccccc2c(=O)[nH]1
·,-6.3%,·,-2.0%,O=C(Nc1cccc(S(=O)(=O)N2CCCCC2)c1)C1CCC1
1.3,2.0%,-0.5%,-3.8%,CSCCC(NC(=O)/C(=C\c1ccc(Cl)cc1)NC(=O)c1ccccc1)C(=O)O (centres undefined)
8.0,21.6%,-6.9%,-3.5%,O=C(c1ccc(S(=O)(=O)N2CCOCC2)cc1)N(c1ccccc1)C1C=CS(=O)(=O)C1 (centres undefined)
·,4.4%,0.6%,-0.2%,O=C(CSc1ccc2nnc(-c3ccccn3)n2n1)Nc1ccc(F)cc1F
3.5,-5.9%,4.0%,0.4%,Cn1c(SCC(=O)Nc2cccnc2)nnc1-c1ccccc1F
5.0,-6.8%,-0.8%,-2.6%,O=C(CN1CC(=O)Oc2ccccc21)OCC(=O)c1ccc(F)cc1
3.3,-11.7%,-20.4%,-0.7%,C=CCn1c(SCC(=O)Nc2ccccc2)nnc1-c1cccc(S(=O)(=O)N2CCOCC2)c1
4.0,9.8%,1.7%,1.0%,CCOC(=O)c1cn[nH]c1NC(=S)Nc1ccc(OC)cc1
-7.9,-14.7%,0.9%,1.1%,CCC(C)Cn1c(C(C)C)nc2ccccc21 (centres undefined)
·,4.5%,-2.7%,3.8%,Cc1ccc(-c2nnc(SCC(=O)N/N=C/c3ccccc3C(=O)O)n2C2CCCCC2)cc1
·,36.1%,·,?,O=C(NC1CC1)c1cccc(NC(=O)C2CCCCC2)c1
1.1,-19.6%,-0.3%,-1.9%,O=C(NCc1ccncc1)Nc1cccc([N+](=O)[O-])c1
·,-19.3%,-7.3%,-0.4%,Nc1cn(C2OC(CO)C(O)C2O)c(=O)[nH]c1=O (centres undefined)
0.5,32.7%,-3.4%,4.8%,CCN(CC)C(=O)Cn1cnc2sc(C(=O)Nc3cc(OC)c(OC)c(OC)c3)c(C)c2c1=O
-6.4,13.1%,0.3%,3.3%,Cc1n[nH]c(C)c1S(=O)(=O)N1CCCC(C(=O)NC2CCCc3ccccc32)C1 (centres undefined)
1.2,-21.1%,-3.1%,-2.8%,CCOc1c2ccc(C(=O)NCc3ccc4c(c3)OCO4)cc2nn1C
1.9,0.6%,-14.0%,4.7%,COc1ccc(Br)cc1S(=O)(=O)n1ccnc1C
10.2,34.0%,0.5%,0.0%,CCC(NC(=S)NCc1ccccc1)C(=O)O (centres undefined)
3.4,2.4%,-13.3%,-0.8%,O=C(Nc1cnn(Cc2ccc(F)cc2)c1)c1cc(-c2cccs2)on1

Bioassay records from PubChem BioAssay.
